# eIF4H inh = inhibitors of RNA binding by human eIF4H; Q15056; eIF4H fluorescence polarization binding assay; inhibition, % at 35 µM; actives 0.94% (n = 290,000); AID 2012;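 active = 50% or more with normal probe brightness, or confirmed in later tests; inconclusive = above 50% with abnormal brightness, or retests that disagree; inactive = below 50% or failed in later tests; about a fifth of its hits are not listed in these tables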;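 also: calls also rest on retests at 20 µM and on dose response follow-up; 0% = protein and probe with vehicle and 100% = probe without protein; strong numbers were not always called active; many hits fall short of the cut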
# PABP polyA inh = blocks human PABP binding to poly(A) RNA | inhibition, % at 35 µM | fluorescence polarization | P11940 | actives 1% (n = 290,000);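 active = 50% or more with normal probe brightness, or confirmed in later tests; inconclusive = above 50% with abnormal brightness, or retests that disagree; inactive = below 50% or failed in later tests; about a fifth of its hits are not listed in these tables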;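 also: calls also rest on retests at 20 µM and on dose response follow-up; controls were probe without protein and protein plus probe with vehicle; some compounds called inactive have numbers as strong as hits; many hits fall short of the cut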
# MT1-MMP act inh = MT1-MMP (human) activation inhibition; P50281; HT1080 RFP-PRO-GFP cells, GFP/RFP ratio fluorescence, overnight; percent of plate control window, DMSO zero; actives 0.061% (n = 360,000); GFP/RFP ratio change, % at 20 µM;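 active = GFP/RFP ratio change of at least 30% with cell ATP level not reduced by more than half and red fluorescence within 50% of control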; also: strong numbers were not always called active
#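 Assay system: RFP-PRO-GFP reporter HT1080 cells; read-out basis: GFP/RFP fluorescence ratio; benchmarks: DMSO wells and RFP-L50D-GFP cells; doses: 20 µM single dose, 1% DMSO; schedule: overnight cell settling, then overnight compound exposure, 37 °C, 5% CO2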
# Yeast UUG start = modulators of start codon recognition fidelity in yeast; actives 0.13% (n = 350,000); S. cerevisiae UUG-firefly luciferase reporter, luminescence/redox ratio; activity score, % at 18.7 µM;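 active = replicate mean at a twofold rise or more, about +100% in these data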;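 also: firefly luciferase made from a UUG start codon reports start codon fidelity; reporter light over untreated wells divided by growth signal over untreated wells; some hits fall short of that in this replicate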
# CSC inhib = blocks cancer stem cells | cancer stem cell-like cells viability, luminescence | inhibition, % at 7.5 µM | actives 1.1% (n = 300,000);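 active = mean at 75% or more and at least half the replicates too; inconclusive = mean and replicates disagree; tested in HMLE shEcad cells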;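 also: 0% = median of negative and 100% = median of positive control wells; the first replicate is given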
# Env fusion inh = HIV envelope-mediated fusion inhibition; HeLa-JRFL Env/CEM21 cell fusion, luciferase; inhibition, % at 12.3 µM; actives 1.1% (n = 360,000);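 active = mean replicate inhibition score of at least 50 and every replicate individually at or above 50; inconclusive = only one of the two criteria met; inactive = mean below 50 and not all replicates reaching 50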;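 also: 0% = plate neutral controls and 100% = maraviroc near 300 nM; one replicate is shown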
# Rce1 inh = inhibitors of yeast Ras-converting enzyme; yeast membranes, quenched prenylated peptide cleavage fluorescence; AID 2563; calls only; actives 0.27% (n = 290,000);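 active = fall in fluorescence gain of 50% or more versus controls, with final raw signal at or below 3038400; inconclusive = same 50% fall but final raw signal above 3038400; inactive = fall in fluorescence gain under 50%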;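 also: plate controls were neutral control wells for no effect and wells lacking membranes for full effect; tested at 10 µM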
# Target sequence (Q03530 whole entry, looked up): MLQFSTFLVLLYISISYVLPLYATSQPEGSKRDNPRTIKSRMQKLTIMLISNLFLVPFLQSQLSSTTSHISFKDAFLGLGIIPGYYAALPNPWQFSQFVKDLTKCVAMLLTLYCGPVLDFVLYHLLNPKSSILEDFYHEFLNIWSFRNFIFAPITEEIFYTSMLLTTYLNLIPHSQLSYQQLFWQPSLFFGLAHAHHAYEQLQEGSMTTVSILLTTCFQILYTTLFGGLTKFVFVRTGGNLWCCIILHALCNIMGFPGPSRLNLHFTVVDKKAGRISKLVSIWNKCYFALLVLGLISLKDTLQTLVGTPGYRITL
# MT1-MMP act inh RFP = second read-out of MT1-MMP act inh, no call of its own (marks repeat the call); RFP signal change, %; measured here: RFP expression control read;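 0 = vehicle wells; hits needed this value within 50% of zero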
# * hit, by the source's call; i = inactive; ? = inconclusive; / = no result given.
molecule	eIF4H inh	PABP polyA inh	MT1-MMP act inh	MT1-MMP act inh RFP	Yeast UUG start	CSC inhib	Env fusion inh	Rce1 inh
c1coc(CNc2ncnc3c2oc2ccccc23)c1	-6	-8	7	-13	-12	7	35	/
Cc1cc(-c2csc(NCc3ccccc3)n2)c(C)n1C	?	-14	-4	3	-9	/	/	/
CN(CCNC(=O)C1(O)c2ccccc2NC(=O)N1c1ccccc1)Cc1ccccc1 (stereo unspecified)	-8	-5	-1	3	-13	-4	-91	/
Cc1cc(C(=O)NNC(=S)NC(C)c2ccccc2)cs1 (stereo unspecified)	3	10	2	-1	/	-22	/	i
CC(C)Cc1ccc(CN2CCCC(NC(=O)CCCN3CCCC3=O)C2)cc1 (stereo unspecified)	15	-1	2	-1	-1	9	8	i
C/C(=N\NC(=O)c1nnn(-c2nonc2N)c1CSc1ccc(C)cc1)c1ccco1	-16	2	6	2	-12	2	5	i
Cc1ccc(C(=O)C2CCN(S(=O)(=O)c3ccc(C(=O)O)cc3)CC2)cc1	12	10	1	5	-8	-4	-6	i
CN(C)S(=O)(=O)c1cccc(NC(=O)CCNC(=O)c2ccccc2Cl)c1	-4	-5	0	-2	-16	2	29	i
NC(Cc1ccc(Cl)cc1)c1csc(NC(=O)NCCc2ccccc2)n1 (stereo unspecified)	/	/	-5	1	-10	/	31	/
COc1ccc2sc(-c3ccc(S(C)(=O)=O)cc3)c(-c3ccc4c(c3)OCCO4)c2c1	/	/	-10	-6	-20	20	-13	/
O=c1[nH]c(C2CCN(S(=O)(=O)c3ccc(S(=O)(=O)NC4CC4)cc3)CC2)nc2c1nnn2Cc1ccccc1	9	6	2	1	-6	-19	10	i
COc1ccc(C2(c3ccc(OC)cc3)NC(=O)N(CC(=O)Nc3ccc(OC)c(OC)c3)C2=O)cc1	-5	13	-1	-4	16	-10	0	i
Cc1cc(C)cc(C(=O)N2CC(C)OC(C)C2)c1 (stereo unspecified)	-8	3	0	1	-2	0	-6	i
O=S(=O)(NCc1ccc2c(c1)OCO2)c1ccccc1F	1	1	1	-1	11	0	-6	i
O=C(CSc1nnc(CNC(=O)c2ccccc2)o1)NCc1ccccc1	-2	1	2	4	-14	-8	-6	i
COC(=O)c1ccc(OCC(=O)NCCC2=CCCCC2)c(OC)c1	/	/	0	3	-7	-24	/	/
CCOC(=O)c1ccc(NC(=O)CC2C(=O)OCCN2CC)cc1 (stereo unspecified)	-4	-1	5	9	/	-15	4	i
CC(=O)Nc1ccc(S(=O)(=O)NCC2CCC(C(=O)NCCCOC(C)C)CC2)cc1 (stereo unspecified)	-7	-2	/	/	/	-8	-9	i
O=[N+]([O-])c1ccc2nc(-c3cccnc3)[nH]c2c1	-12	3	0	-4	-15	10	-22	i
COC(=O)c1cc(Cl)c(NC(=O)/C=C/c2ccc(Cl)cc2Cl)cc1OC	-6	-2	-3	-7	-26	27	-157	i
Cc1onc(-c2ccccc2)c1CNC(=O)Nc1cccc(Cl)c1	-8	-6	2	-15	-19	5	16	/
COCCn1c(SCC(=O)Nc2ccc(C)cc2)nc2c(oc3ccccc32)c1=O	-7	-24	-1	-1	/	-4	-15	i
Cc1cc2c(cc1S(=O)(=O)C(C)CC(=O)NCc1ccco1)OCC(=O)N2 (stereo unspecified)	3	-4	-2	-3	-22	-13	3	i
CCOc1ccc(Nc2nc3c(C)cccc3cc2C#N)cc1	37	4	0	0	-14	-13	-16	i
CCOC(=O)c1nnn(-c2nn3nnnc3c3ccccc23)c1C	-3	9	1	2	49	5	24	/
CC(=O)c1ccc2c3c(cccc13)CC2	-3	-6	-3	3	-15	18	-285	i
CC1(C(=O)NC2CCCCCC2)CCN1C(=O)Cc1ccc(-c2ccccc2)cc1 (stereo unspecified)	/	/	1	-15	13	/	46	/
Cc1ccnc(N2CCC(C(=O)NNC(=O)COc3cccc4ccccc34)CC2)n1	-4	16	-1	3	/	/	12	i
CC(C)N1CCC1(C)C(=O)Nc1nccc2cccnc12 (stereo unspecified)	/	/	3	3	-26	/	3	/
O=C(CC1C(=O)NCCN1Cc1ccc(-c2ccccc2)cc1)NCCc1ccccn1 (stereo unspecified)	10	5	-1	5	/	9	14	i
CCCn1c(SCc2ccon2)nc2ccccc2c1=O	1	-5	-4	-3	/	-7	/	i
O=C(CCNC(=O)c1ccccc1Cl)Nc1cccc(S(=O)(=O)N2CCCC2)c1	/	/	1	2	5	8	/	/
COC(=O)CCN(C(=O)c1ccc(N2CCCC2)c([N+](=O)[O-])c1)c1ccccn1	-6	-4	0	-4	/	8	7	i
NS(=O)(=O)c1ccc(CCNC(=O)Cc2cccs2)cc1	0	7	1	2	-22	-2	-9	i
NS(=O)(=O)c1ccc(CNC(=O)c2ccccc2SCC(=O)N2CCCC2)cc1	/	/	3	3	-11	6	/	i
O=C(Cc1ccccc1)Nc1nonc1NC(=O)c1ccccc1	-1	-8	2	-3	-15	-10	13	i
COc1ccccc1NC(=O)N1CCCC1C(=O)Nc1ccc2c(c1)OCCO2 (stereo unspecified)	-10	-6	0	2	/	-15	7	/
CC(=O)Nc1ccc(NC(=O)c2ccc(-c3c(C)noc3C)c3ccoc23)cc1	/	/	18	12	4	/	6	/
COc1ccc(S(=O)(=O)N2CCC(Cc3ccccc3)CC2)cc1NC(C)=O	-8	-6	1	-5	-10	0	9	i
CC(C)c1cc(CN2CCN(C3CCCC3)C(CCO)C2)[nH]n1 (stereo unspecified)	9	6	3	3	/	-12	22	i
Cc1ccc(C2C(C(=O)c3sc(C)nc3C)=C(O)C(=O)N2CCN(C)C)o1 (stereo unspecified)	5	15	-13	1	-10	-14	/	i
O=[N+]([O-])c1ccc(CSc2ccccn2)cc1	-4	-4	-1	-2	1	-13	-35	i
CN1CC(=O)N2Cc3[nH]c4ccccc4c3C[C@H]2C1=O	-2	6	1	0	-8	-8	0	i
Cc1ccc(S(N)(=O)=O)c(C)c1N1CCCC1=O	1	2	-3	3	/	-11	14	i
C=C(C)Cn1cnc2c(oc3nc4c(cc32)CCCC4)c1=O	7	1	-2	4	/	3	-19	i
Cc1cc(C)n(C(=O)c2cc3sccc3[nH]2)n1	-9	-8	-5	-4	-16	-13	-80	i
Cc1cccc(NC(=O)Cn2cnc(S(=O)(=O)N3CCCC3)c2)c1C	-6	10	0	2	-9	-17	-3	i
CC(=O)Nc1ccc(S(=O)(=O)N2CCCc3ccccc32)cc1	-4	-2	-3	-7	-8	55	23	i
O=C(N/N=C/C=C\c1cccc([N+](=O)[O-])c1)c1cccnc1	2	-4	9	-5	-18	-2	-4	i
COCC(C)NS(=O)(=O)c1ccc(C)cc1 (stereo unspecified)	-16	10	2	6	9	-2	-82	i

# Additional results.
molecule	eIF4H inh	PABP polyA inh	MT1-MMP act inh	MT1-MMP act inh RFP	Yeast UUG start	CSC inhib	Env fusion inh	Rce1 inh
O=C(CCC(=O)Nc1ccccc1Cl)NNC(=O)C1CCCCC1	/	/	1	5	-12	3	0	/
CCN(CC)CCOC(=O)c1c(C)oc2ccc(OC)cc12	-4	23	-4	-4	-12	/	17	i
O=C(N/N=C/C=C/c1ccccc1)c1cc2c(ccc3ccccc32)o1	-17	-26	3	4	/	-4	/	i
CNC(=S)N/N=C/c1ccccc1OCC(=O)O	-7	-2	1	4	-13	-5	7	i
COc1cc2cc3c(N)c(C(=O)NCc4ccco4)sc3nc2cc1OC	82*	109*	-2	5	-16	39	/	i
O=C(CN(CCc1ccccc1)C(=O)c1csnn1)NC1CCCC1	9	13	1	2	-5	0	14	i
Brc1ccc(CNc2nc3ccccc3n2CCN2CCCCC2)cc1	-1	-1	-2	-5	/	64	32	i
COc1ccccc1NC(=S)N1CCC(c2nc3ccccc3o2)CC1	-1	-2	1	5	-30	-11	3	i
Cc1cccc(-n2c(C)nc3cc(C(=O)NCC4CCCO4)ccc32)c1 (stereo unspecified)	-10	-4	3	5	-14	18	-4	i
CCc1c(C)nc2ncnn2c1Nc1ccccc1C	-10	1	0	-5	-15	-10	-7	i
CC1(C)CCC/C(=C\c2ccccc2)C1=O	/	/	0	2	-17	-6	-9	i
CC(C)CCNC(=O)CSc1nc2ccccc2s1	-11	17	-4	2	/	/	12	i
CC(C)NC(=S)Nc1ccc2nc3n(c(=O)c2c1)CCCCC3	33	-5	7	3	-21	-7	/	i
Cc1ccc(NC(=O)C2CC(=O)n3c(nc4ccccc43)N2)cc1 (stereo unspecified)	-12	-9	-3	-3	-18	-14	/	i
COc1ccc(CCn2c(C(C)C)nc3oc4ccccc4c(=O)c3c2=O)cc1	0	2	-2	-1	/	-5	-3	i
Cc1ccc(/C=N/NC(=O)c2n[nH]c3c2CCCC3)cc1	8	-2	15	1	-3	57	-257	i
CCOc1ccccc1NS(=O)(=O)c1cccs1	0	-5	-1	3	-7	-8	-14	i
COc1cc(C(=O)NCC(=O)N/N=C/c2ccccn2)cc(OC)c1OC	3	-17	-2	4	/	6	8	i
Cc1ccc(-c2noc(COc3ccccc3C)n2)cc1	-3	-4	-5	2	-13	12	-173	/
COc1ccc(C(=O)NC(=S)NNC(=O)c2cnccn2)cc1OC	16	-12	0	-3	-3	38	13	i
COc1ccc(-c2ccc(=O)n(Cc3cc(=O)n4ccccc4n3)n2)cc1	-3	2	0	0	-4	11	/	i
Cc1c(/C=N/n2cnnc2)c2ccccc2n1CCOc1ccccc1	1	-4	-1	-4	6	-2	/	i
O=C(O)Cc1csc2ccccc12	-6	4	4	5	-4	-24	/	i
FC(F)(F)c1ccc(-c2cccc3c2C2CC3CCN2)cc1 (stereo unspecified)	/	/	3	3	1	/	-6	/
Cc1cc(/C=C2/NC(=O)N(c3ccccc3)C2=O)c(C)n1-c1cccnc1	13	-1	-3	-2	-10	-6	-47	i

# Whole records, quoted from the list.
# CC(C)NC(=S)Nc1ccc2nc3n(c(=O)c2c1)CCCCC3 is listed with eIF4H inh = 33; PABP polyA inh = -5; MT1-MMP act inh = 7; MT1-MMP act inh RFP = 3; Yeast UUG start = -21; CSC inhib = -7; Env fusion inh = /; Rce1 inh = i
# COc1ccc(C(=O)NC(=S)NNC(=O)c2cnccn2)cc1OC is listed with eIF4H inh = 16; PABP polyA inh = -12; MT1-MMP act inh = 0; MT1-MMP act inh RFP = -3; Yeast UUG start = -3; CSC inhib = 38; Env fusion inh = 13; Rce1 inh = i

# Next section.
molecule	eIF4H inh	PABP polyA inh	MT1-MMP act inh	MT1-MMP act inh RFP	Yeast UUG start	CSC inhib	Env fusion inh	Rce1 inh
Cc1ccc(S(=O)(=O)N(C)C)cc1NC(=O)COC(=O)C1(c2ccccc2)CC1	/	/	-1	3	12	1	2	i
CC(C)(C)SCCNC(=O)CN(c1ccccc1)S(=O)(=O)c1ccccc1	9	-2	3	2	-4	-2	4	i
Cc1cc(C(=O)Nc2cccc3ccccc23)c(C)o1	4	-6	-2	-1	-9	-8	17	i
Cc1ccc2cc3c(nc2c1)N(c1ccccc1)CC3	-3	-16	-2	2	-13	13	-6	i
Cc1cccc(-n2cc(CN3CCN(C(=O)c4ncn[nH]4)CC3)c(-c3cccc(F)c3)n2)c1	3	-3	-6	-2	/	18	4	i
Cc1ccc(S(=O)(=O)N2CCCCC2)cc1NS(=O)(=O)c1ccc(Cl)c(C(=O)O)c1	/	/	1	3	-9	/	11	/

# Bioassay records: PubChem BioAssay, several laboratories

# Not all compounds are listed (hit frequency here may not be typical).
